High-throughput results as filed in PubChem.
VDR inhibitor: blocks the human vitamin D receptor; P11473; VDR-SRC2-3 peptide fluorescence polarization, 2 h; Potency, µM, without a hit: max response, negative = inhibition, hits mostly inhibitors; 0.93% of 400,000 active; active = well fitted inhibition curve with a large enough effect; inconclusive = small, poorly fitted or top-dose-only effect, or another doubt; inactive = no such curve, though single readings can be large or run the other way; note: series mostly up to about 120 µM
Target sequence (P11473 whole entry, looked up): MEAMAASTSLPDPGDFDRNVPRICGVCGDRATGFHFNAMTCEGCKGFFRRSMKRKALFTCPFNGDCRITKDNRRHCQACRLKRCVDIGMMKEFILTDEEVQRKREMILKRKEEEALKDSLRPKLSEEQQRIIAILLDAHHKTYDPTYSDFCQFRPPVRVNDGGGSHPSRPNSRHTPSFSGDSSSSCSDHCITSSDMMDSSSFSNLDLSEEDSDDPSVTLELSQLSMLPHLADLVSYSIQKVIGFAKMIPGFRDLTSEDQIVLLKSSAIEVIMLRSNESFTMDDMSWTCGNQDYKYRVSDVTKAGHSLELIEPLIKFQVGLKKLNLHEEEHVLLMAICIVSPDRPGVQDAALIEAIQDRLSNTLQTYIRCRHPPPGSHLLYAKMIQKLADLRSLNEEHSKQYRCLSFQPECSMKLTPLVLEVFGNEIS
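Inhibition of the VDR/SRC2-3 peptide interaction is quantified by fluorescence polarization. Compounds (23 nl, pintool) incubate with the reagents for 2 hours at ambient room temperature.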
Numbers without * were called inactive; ? = inconclusive; & = joins results of further samples; [ ] = dose if it differs, or a comment. % is set by controls: 0 for no effect and ±100 for the full control effect; potency is the fitted concentration of half-maximal effect. An excerpt (hit frequency here may not be typical).

| VDR inhibitor | SMILES |
| --- | --- |
| -18% | Cc1nnc(NC(=O)CCCCCN2C(=O)C3C4C=CC(C4)C3C2=O)s1 (stereo not given) |
| 5% | N#CC(=NCc1cccnc1)C1=C(O)c2ccccc2C1=O |
| 0% | COCCNC(=S)N/N=C(\C)c1ccc(-n2ccnc2)cc1 |
| 24% | COc1ccc(C(=O)/C=C/c2ccc(OC)c(COc3ccccc3F)c2)cc1 |
| -26% | CCN(CCn1cccn1)C(=O)c1cc(COc2cc(C)ccc2C)on1 |
| 16% | CC(C)Oc1ccccc1-c1cc(C(=O)N/N=C/c2cccnc2)c2ccccc2n1 |
| -11% | COc1ccc([N+](=O)[O-])cc1NC(=O)COC(C)=O |
| 7% | Cc1cccc(NC(=O)C2Cc3ccccc3CN2C(=O)OCc2ccccc2)c1C (stereo not given) |
| 17% | CN[C@]1(C)[C@H]2CC[C@@H](C2)C1(C)C |
| -15% | COc1ccc(-c2nnn(CC#N)n2)cc1OC |
| -1% | C#CCNC(=O)C1=C[C@H](c2coc3ccccc3c2=O)[C@@H](CCCO)[C@H](OCC)O1 |
| -3% | CNc1cc(N2CCCC2)ccc1[N+](=O)[O-] |
| 3% | COc1cccc(C(c2sc3nc(-c4ccco4)nn3c2O)N2CCCC2)c1 (stereo not given) |
| 11% | O=C1CNC(=S)N1CCc1ccc(O)c(O)c1 |
| -7% | Cc1cc(C(=O)COC(=O)c2ccc[nH]c2=O)c(C)n1-c1ccc(F)cc1 |
| -12% | Clc1ccc(-c2cc(-c3nnc4n3CCCCC4)c3ccccc3n2)cc1 |
| -13%&-4% | COC(=O)c1cccc(-n2c(CCC(=O)O)ccc2-c2cccs2)c1 |
| -9% | CCCCNC(=S)NNC(=O)c1cc(-c2cccnc2)nc2ccccc12 |
| -7% | O=C(NNC(=O)C12CC3CC(CC(C3)C1)C2)c1cnccn1 |
| 4% | c1ccc(-c2nc(NCCCn3ccnc3)c3ccccc3n2)cc1 |
| 3% | Cc1onc(-c2ccccc2)c1C(=O)Nc1sc2c(c1C#N)CCC(C)C2 (stereo not given) |
| 6% | COc1ccc2nc(N(Cc3cccnc3)C(=O)c3ccc4c(c3)OCCO4)sc2c1 |
| 9% | COc1ccc(Cc2nn3c(-c4ccccc4OC)nnc3s2)cc1 |
| 13% | Oc1ccc(-c2csc(-c3ccccc3)n2)cc1O |
| 8% | Cc1cccc(C)c1N1CCN(C(=O)N2CCCCC2)CC1 |
| -1% | COc1ccccc1C(=O)Nc1ccc(C(=O)/C=C/c2cccs2)cc1 |
| 18% | CCCc1cc(=O)oc2c(C)c(OCC(=O)c3ccc(N4CCCC4)cc3)ccc12 |
| -7% | CS(=O)(=O)N(CC(=O)N1CCOCC1)c1cc(C(F)(F)F)ccc1Cl |
| -1% | CCn1c(=O)n(CC(=O)NC2CCCC(C)C2C)c(=O)c2ccccc21 (stereo not given) |
| 14% | N#Cc1ccccc1OCc1nnc(-c2ccccc2Br)o1 |
| -4% | COc1ccc(-c2cc(C(=O)Nc3cc(Cl)ccc3O)no2)cc1 |
| 5% | CC(C)n1cc2c(N)ncnc2n1 |
| 4% | COc1ccccc1CN1CC(C(=O)NCc2ccc(SC)cc2)CCC1=O (stereo not given) |
| -6% | CN(CC(=O)Nc1ccccc1C(F)(F)F)C(=O)CSc1nnnn1C |
| 7% | CCCCn1nc(NC(=O)c2cccc(Cl)c2)c2cc3ccc(C)cc3nc21 |
| ? | Cc1ccc(S(=O)(=O)Nc2nc3ccccc3nc2NCC2CCCO2)cc1C (stereo not given) |
| -3% | CCN(CC)c1ccc(/C=C2\NC(=O)NC2=O)cc1 |
| 5% | O=C(COC(=O)c1cccc(NS(=O)(=O)c2ccc(F)c(F)c2)c1)NC(=O)NC1CCCCC1 |
| -12% | CC(C)(C)C(=O)Nc1cccc(-c2ccc[nH]2)n1 |
| -28% | O=S(=O)(c1cc(Cl)c(Cl)cc1Cl)N1CCN2CCCC2C1 (stereo not given) |
| -19% | O=C(N[C@@H](Cc1ccccc1)C(=O)OCc1ccccc1)c1nc[nH]c1C(=O)N1CCc2ccccc2C1 |
| 11% | Cc1ccc(NC(=O)CCCCCN2C(=O)[C@@H]3Cc4ccccc4CN3C2=O)c(C)c1 |
| 7% | COc1ccc(S(=O)(=O)N2CCN(C)CC2)cc1NC(=O)c1ccccc1C |
| -6% | CCC(=O)Nc1ccc2c(c1)nc(CCN1CCN(C)CC1)n2C |
| -13% | Cc1ccc(S(=O)(=O)N(CC(=O)Nc2ccc(Cl)cc2)C(=O)N2CCN(C)CC2)cc1 |
| ? | COc1ccc(C(=O)NCCS(=O)(=O)N(C)Cc2ccccc2)cc1 |
| -1% | COc1ccccc1CN1CCN(Cc2nc(-c3ccccc3)no2)CC1 |
| -6% | CCOc1ccc(NC(=O)Cn2nnc(-c3ccccc3NC(=O)CC)n2)cc1 |
| -3% | COCCNC(=O)C(=O)N/N=C(\C)CC(=O)Nc1cccnc1 |
| 13% | Cc1cc(C)nc(NC(N)=NC(C)c2ccccc2)n1 (stereo not given) |
| 0% | COC(=O)c1cc2sc(Cl)cc2n1Cc1nc(-c2ccc(OC)cc2)oc1C |
| 7% | O=C(O)CCC(=O)NNC(=O)c1cccc(Br)c1 |
| -5% | COc1ccc(CC(=O)OCC(=O)NC2CC2)cc1 |
| -31% | Cc1nn(-c2ccccc2)c(Cl)c1CN(C(=O)CCl)c1cccc2ccccc12 |
| -2% | COc1ccc(Cl)cc1-c1n[nH]c(=S)o1 |
| 16% | CC1(C)Oc2ccc3ccc(=O)oc3c2/C(=C/Nc2cccc(O)c2)C1=O |
| 3% | CC(=O)Nc1ccc(S(=O)(=O)NCc2ccc(C(=O)NC(C)c3ccccc3)cc2)cc1 (stereo not given) |
| 9% | CCN(CC)CCCNC(CC(=O)Nc1cccc([N+](=O)[O-])c1)C(=O)O (stereo not given) |
| 10% | Cc1cc(C(=O)N2CCCC(CCC(=O)N3CCN(c4ccccn4)CC3)C2)c(C)o1 (stereo not given) |
| 11% | COc1ccc(-n2ncc3c(SCC(=O)N4CCN(c5ccccc5OC)CC4)ncnc32)cc1 |

(more compounds)
| VDR inhibitor | SMILES |
| --- | --- |
| -19% | Cc1sc2nc(SCC(=O)N(C)c3ccccc3)n(C)c(=O)c2c1C |
| 12% | Cc1ccc(NC(=O)c2ccc(OCc3c(C)noc3C)cc2)c(C)c1 |
| -2% | COC(=O)c1sccc1Oc1ccc(Cl)cc1N1C(=O)CCC1=O |
| 7% | Cc1nc2ccc(S(=O)(=O)NC(CC(C)C)C(=O)N3CCN(c4ccc(F)cc4)CC3)cc2s1 (stereo not given) |
| -11% | COCCN(C(=O)c1ccco1)c1nnc(-c2ccc(F)cc2)s1 |
| 1% | CCCN1C(=O)c2oc3cc(C)cc(C)c3c(=O)c2C1c1ccc(F)cc1 (stereo not given) |
| -20% | Cc1cc(NS(=O)(=O)c2ccc(NC(=O)c3c(F)c(F)c(F)c(F)c3F)cc2)nc(C)n1 |
| -8%&-1% | COc1cccc(NC(=O)CCNS(=O)(=O)c2ccc(Br)s2)c1 |
| 6% | Cc1cc(C(=O)NC(C)CCc2ccccc2)ccc1[N+](=O)[O-] (stereo not given) |
| 4% | CCOCc1c(C(=O)N2CCN(CCOc3ccc(Cl)cc3)CC2)oc2ccccc12 |
| 6% | CCOC(=O)C(C)NC(=O)c1cc2c(=O)[nH]c3ccc(C)cc3c2s1 (stereo not given) |
| 7% | CNCC(=O)Nc1ccc(Cl)c(C(F)(F)F)c1 |
| 2% | CCCS(=O)(=O)N1CCN(C(=O)COc2ccccc2)CC1 |
| 2% | O=C(NCc1ccco1)C(c1ccco1)N(CCc1ccccc1)C(=O)Cn1nnc2ccccc21 (stereo not given) |
| 2% | CCOc1ccc(N(C(=O)OC(C)(C)C)C(=O)c2ccc(O[Si](C)(C)C(C)(C)C)cc2)c(I)c1 |
| 13% | Cc1ccc2c(c1)N(CCC(=O)NCCCN1CCCC1)C(=O)CO2 |
| -17% | O=C(Cn1cnc2c(NCc3ccccc3)ncnc21)NCC1CCCO1 (stereo not given) |
| -3% | CCOc1cc(C)c(S(=O)(=O)NC2CC(C)(C)NC(C)(C)C2)cc1C |
| 6% | COc1ccc(NC(=O)CN2C(=O)COc3ccc(C)cc32)c(OC)c1 |
| 15% | COc1ccc(C(=O)C(CCCCC(CN(C)C)C(=O)c2ccc(OC)cc2)CN(C)C)cc1 (stereo not given) |
| -5% | Cc1ccc(CNC(=O)C2CCCN2C(=O)NCc2ccccc2)cc1 (stereo not given) |
| 1% | COc1ccc(CC(=O)OCc2nnc(-c3ccccc3)o2)cc1 |
| 1% | COc1ccc(CCN(C)C(=O)C2CC(=O)N(Cc3ccc(C)cc3)C2)cc1OC (stereo not given) |
| 0% | CC(C(=O)NC(=O)NC1CCCCC1)N(C)CC(=O)Nc1ccc(F)c(F)c1F (stereo not given) |
| -4% | CCOc1ccc(/C=C2\SC(=S)NC2=O)cc1OC |
| 3% | O=C(c1cccs1)N1CCc2ccccc21 |
| -7% | CCOc1ccc(Cc2nc(C)c(CC(=O)N3CCOCC3)c(=O)[nH]2)cc1 |
| -14% | CCc1ccccc1NC(=O)CN(Cc1ccccc1)S(=O)(=O)c1ccc(Br)cc1 |
| 19% | O=C(CCNS(=O)(=O)c1ccccc1F)OCc1ccccc1Cl |
| -7% | O=C(NCCCCNCCCNC(=O)c1ccccc1)c1ccccc1 |
| -5% | O=C(CSc1n[nH]c(-c2ccccc2F)n1)Nc1cc(F)ccc1F |
| 5% | O=C(CNc1cc([N+](=O)[O-])ccc1NCCO)Nc1cccc(S(=O)(=O)N2CCCCC2)c1 |
| 2% | CCCCOC(=O)C1CCCC(C(=O)OCCCC)N1 (stereo not given) |
| ? | S=C(Cc1ccc(Cl)cc1)N1CCOCC1 |
| -25% | FC(F)(F)c1ccc(Cl)c(-n2c(-c3cc(C4CC4)[nH]n3)n[nH]c2=S)c1 |
| 6% | COC(=O)c1c(NC(=O)Cc2coc3cc(C)ccc23)sc2c1CCCC2 |
| -7% | COc1ccc(C(CC(=O)Nc2ccc(C)c(C)c2)N2Cc3ccccc3C2=O)cc1OC (stereo not given) |
| -2% | CCOc1ccc(C2c3c(oc4cc(C)c(C)cc4c3=O)C(=O)N2CCCN2CCOCC2)cc1 (stereo not given) |
| 4% | O=C(Nc1ccc(-c2csc(Nc3ccccc3)n2)cc1)c1cccc(C(F)(F)F)c1 |
| 8% | Cn1nc(CC(=O)NC2CCCCCCCCCCC2)c2ccccc2c1=O |
| 2% | COc1cc(/C=C/C(=O)N2CCN(Cc3ccccc3)CC2)cc(OC)c1OC |
| 2% | COc1ccc(/C(C)=N/NC(=O)CNC(=O)/C=C\c2ccccc2)c(OC)c1 |
| -4% | CN(C)c1ccc(C(C(=O)NCC2CCCO2)N(C(=O)c2snc(C(N)=O)c2N)c2ccc3c(c2)OCO3)cc1 (stereo not given) |
| 14% | Nc1cc(Cl)ccc1Oc1ccc2ccccc2c1 |
| -7% | Cc1cc(C)c(NC(=O)CSc2nc(COc3ccccc3)nc3ccccc23)c(C)c1 |
| 8% | CC(C)(C)n1nnnc1SCC(=O)Nc1nn(-c2ccccc2)nc1C(N)=O |
| 9% | O=C(CSc1nc(-c2ccccc2)cs1)N1CCN(C(=O)c2ccco2)CC1 |
| 5% | CC1(C)Cc2c(cnn2-c2ccccc2)C(=O)/C1=N\NC(=O)c1ccccc1O |
| ? | CCCCN=C1NN=C(c2ccc(C)c(C)c2)CS1 |
| 3% | CCOc1c2ccc(C(=O)NCc3ccc4c(c3)OCO4)cc2nn1CCOC |
| -12% | COc1ccc(NC(=O)CSc2ccc3c(c2)OCCO3)cc1 |
| -17% | CN1CCC(N(C)C(=O)c2ccc(Cl)c(S(=O)(=O)N3CCCCC3)c2)CC1 |
| 0% | COc1ccc(CC(=O)OCC(=O)NCc2ccc(F)cc2)cc1 |
| 6% | COc1cccc2cc(C(=O)NCc3ccco3)c(=Nc3ccc(C(=O)O)cc3)oc12 |
| -7% | CCCCCCC(=O)Oc1cccc(N2C(=O)C3CCCCC3C2=O)c1 (stereo not given) |
| -6% | Cc1ccccc1NS(=O)(=O)c1cc(S(C)(=O)=O)ccc1C |
| 15% | Cc1cccc(C(=O)N2CCN(Cc3nc4sc5c(c4c(=O)[nH]3)CCCC5)CC2)c1 |
| -1% | COc1ccc(NC(=O)CC2SC(N3CCOCC3)=NC2=O)cc1OC (stereo not given) |
| -7% | O=C(N1CCc2[nH]c3ccccc3c2C1)C(F)(F)F |
| 35%[activator] | CCNS(=O)(=O)c1ccc(NC(=O)CC(C)c2ccccc2)cc1 (stereo not given) |
| -17% | CCOC(=O)c1c(NC(=O)COC(=O)CC(NC(C)=O)c2ccccc2)sc(C(=O)NC)c1C (stereo not given) |
| -2% | Cc1nc2ccccc2c2oc(C(=O)NCC3CCCO3)cc12 (stereo not given) |
